# VACV mCherry inh: inhibitors of vaccinia virus infection (mCherry reporter signal) | Vaccinia virus mCherry reporter infection, fluorescence; about a quarter of the inactives have no number | Potency, µM (series often up to 36.5 µM), inactives show top-dose activity change, negative = inhibition, actives largely listed as inhibitors | 310,000 tested, 0.63% active; active = well fitted inhibition curve with a large enough effect; inconclusive = small, poorly fitted or top-dose-only effect; inactive = no such curve, though single readings can be large or run the other way; tested in A549 cells; also: nearly all actives have a fitted effect of over 35% in size; inactives centre near -10
# VACV Venus inh: vaccinia inhibition (Venus reporter). AID 720580. Vaccinia virus Venus reporter expression, fluorescence. Potency, µM (titrated, usually from 36.5 µM), without a hit: at the top dose activity change, negative = inhibition, most hits filed as inhibitors. 330,000 tested, 0.46% active; active means well fitted inhibition curve with a large enough effect; inconclusive means small, poorly fitted or top-dose-only effect; inactive means no such curve, though single readings can be large or run the other way; tested in A549 cells; also: nearly all actives have a fitted effect of over 30% in size; inactives centre near -10
# * = called active by the depositor; i = inactive; ? = inconclusive; . = no result given; & = joins results of further samples; [ ] = another dose, or the depositor's remark. % is scaled to controls: 0 for no effect and ±100 for the full control effect; potency is read from the fitted curve at half-maximal effect.
SMILES,VACV mCherry inh,VACV Venus inh
Cc1ccccc1-c1nc(CS(=O)(=O)CC(=O)N2CCc3ccccc32)c(C)o1,-6.3%,-7.6%
O=C(CCN1C(=O)C2C3C=CC(C3)C2C1=O)N1CC(=O)N(CCc2ccccc2)C(=O)C1 (stereo not given),.,-16.3%
CN(C)c1ccc(C(=S)N2CCN(C(=S)Nc3ccccc3)CC2)cc1,i,-9.2%
CCOc1ccccc1C(=O)Nc1nnc(SCC(=O)N2CCOCC2)s1,i,-19.5%
Cc1cc(C)n(-c2nc3nonc3nc2Nc2cccc(C)c2C)n1,?,-26.3%
O=C(Cn1cnc([N+](=O)[O-])c1)c1ccc(F)cc1,-1.4%,-1.0%
O=C(Cn1ncn2c(cc3ccccc32)c1=O)NCc1ccco1,i,-6.8%
Clc1ccc(-c2nc3ccccc3[nH]2)cn1,10.6%,-15.7%
Cc1ccc2nc(C)n(-c3ccc(F)cc3)c(=O)c2c1,-8.3%,-3.2%
Cc1ccccc1-c1csc(C(O)c2cccc(Cl)c2)n1 (stereo not given),i,-11.5%
CCN(CC)S(=O)(=O)c1ccc(OC)c(N)c1,i,-7.2%
CCCN1C(=O)c2[nH]nc(-c3ccc(F)cc3)c2C1c1ccc(O)c(OCC)c1 (stereo not given),-9.1%,-9.7%
Cc1nc2sccn2c(=O)c1CCN1CCC(=C(c2ccc(F)cc2)c2ccc(F)cc2)CC1,i,-22.8%
COc1ccc(CNC(=O)Cn2cc(C(F)(F)F)ccc2=O)cc1,-16.4%,-8.5%
COc1cccc(NC2C=CS(=O)(=O)C2)c1 (stereo not given),.,?
Cc1cccc2cc(CN(Cc3ccco3)C(c3nnnn3CCc3ccccc3)C(C)C)c(=O)[nH]c12 (stereo not given),.,-27.4%
COc1cccc(CN2CC(C(=O)NCCc3ccccc3C(F)(F)F)CCC2=O)c1 (stereo not given),-23.2%,-16.6%
CCC1(C(=O)OC)NC(c2ccco2)C2C(=O)N(c3ccc(F)cc3)C(=O)C21 (stereo not given),-0.8%,-14.0%
Cc1ccc(C)c(NC(=O)CSc2ncnc3nc[nH]c23)c1,-14.4%,-12.2%
COC(=O)c1cn(NC(=O)Cn2nc([N+](=O)[O-])c(Br)c2C)c(=O)c2ccccc12,-13.5%,-1.1%
CC(=O)Nc1ccc(NC(=O)c2cccc(Oc3ccccc3)c2)cc1,-24.1%,-17.7%
Cc1cc(C=Nc2ccc(/C=C/c3ccnc4ccccc34)cc2)ccc1N(C)C,-3.0%,-2.9%
Cc1nc2scc(-c3cccs3)c2c(=O)n1-n1cccc1,.,-20.8%
COc1cc(OC)c2c(c1)C(=O)c1cc(OC)cc(OC)c1C2=O,.,-14.7%
O=S(=O)(c1ccc2nc(-c3ccccc3)[nH]c2c1)N1CCN(c2cccc(Cl)c2)CC1,i,-10.5%
CCOC(=O)N1CCN(C(=O)CCS(=O)(=O)c2ccc3c(c2)CCN3C(=O)CC)CC1,i,-10.3%
CNC(=O)c1c(NC(=O)c2ccc(N3C(=O)CCC3=O)cc2)sc2c1CCC(C)C2 (stereo not given),i,-8.1%
CCC(=O)Nc1sc2c(c1C#N)CCC2,-12.3%,-1.8%
CCN(C(=O)c1ccccc1)c1ccc([N+](=O)[O-])cc1,i,-3.4%
N#CC(C#N)=C(Nc1ccc(F)cc1)SCc1cccc(Br)c1,?,?
COc1ccccc1Nc1nnc(SCC2CCCCO2)s1 (stereo not given),-19.5%,-27.5%
COc1ccccc1N(C(=O)c1cncc(Br)c1)c1nc(-c2ccc(C)cc2)cs1,-15.4%,2.8%
c1coc(-c2nnc(NC3=NCCC3)o2)c1,-11.4%,1.0%
O=C(CN1CCN(c2ccc(O)cc2)CC1)Nc1cc([N+](=O)[O-])ccc1Cl,-2.7%,-7.5%
CN=C(Nc1cc(C)nn1CCC#N)c1ccccc1F,i,-7.7%
COc1cc(/C=N/NC(=O)c2cncc(Br)c2)cc([N+](=O)[O-])c1O,-3.8%,-6.9%
O=C1CN(C(=O)c2ccc(S(=O)(=O)N3CCCC3)cc2)C(c2ccccc2)c2cc(Br)ccc2N1 (stereo not given),-16.3%,-13.2%
CCC(=O)N1CCc2cc(S(=O)(=O)CCC(=O)N3CCN(c4cccc(C)c4)C(C)C3)ccc21 (stereo not given),-10.8%,-5.9%
COc1ccc(/C(O)=C2/C(=O)C(=O)N(CCCN(C)C)C2c2cccc(Cl)c2)cc1OC (stereo not given),-8.9%,-4.6%
CC(C)C[C@@H](CN=[N+]=[N-])N1CCN(C)CCC1=O,i,-7.4%&-10.2%

# Looked up one by one from the list above (3):
SMILES,VACV mCherry inh,VACV Venus inh
CN(C)c1ccc(C(=S)N2CCN(C(=S)Nc3ccccc3)CC2)cc1,i,-9.2%
Cc1ccc(C)c(NC(=O)CSc2ncnc3nc[nH]c23)c1,-14.4%,-12.2%
CCN(C(=O)c1ccccc1)c1ccc([N+](=O)[O-])cc1,i,-3.4%

# (further entries)
SMILES,VACV mCherry inh,VACV Venus inh
O=C(O)/C=C/C(=O)c1ccc2c(c1)NC(=O)CO2,i,-8.3%
O=C(Cc1ccccc1)N/N=C/c1cccs1,i,-14.2%
Cc1ccc(-c2ccc(SCC(=O)NC3CCCC3)nn2)cc1,-1.1%,-19.1%
Cn1c(=O)c2[nH]c(-c3ccc(S(=O)(=O)O)cc3)nc2n(C)c1=O,-2.4%,-11.9%&-14.0%
COc1ccc(CNC(=O)C(C)Sc2nc3ccccc3c(=O)n2CC2CCCO2)cc1 (stereo not given),-5.3%,3.8%
O=C(CCC(=O)c1ccc(Cl)cc1)OCc1nc2ccsc2c(=O)[nH]1,-12.2%,-13.5%
O=C(CSc1nnc(-c2ccc(Cl)cc2)n1Cc1ccco1)c1cccs1,-0.6%,-2.3%
Cc1ccc(C)c(N2CCN(C(=O)CN3C(=O)COc4ccc(S(=O)(=O)N5CCC(C)CC5)cc43)CC2)c1,-1.9%,8.8%
CN1CCN(c2ccccc2NC(=O)c2cccs2)CC1,-0.1%,-2.4%
CN1CCCc2cc(/C=C/c3ccnc4ccccc34)ccc21,-9.9%,33.2%[activator]
COc1ccc(CCN2C(=NC(=O)C(C)C)SC3CS(=O)(=O)CC32)cc1 (stereo not given),7.1%,31.4%[activator]
C=CCN(c1ccc(C(=O)N(CC)CC)cc1)S(C)(=O)=O,-15.6%,-14.4%
COc1ccc2c(CNCc3cccs3)c(C(=O)O)n(Cc3ccccc3C)c2c1,i,-15.5%
CC1CC(C)CN(CC(O)COCc2ccccc2)C1 (stereo not given),-7.1%,-2.3%
COC(=O)c1nnn(-c2nonc2N)c1CSc1nc2ccccc2s1,-2.8%,-19.0%
COc1ccc(-c2nsc3c(N4CCN(S(=O)(=O)c5ccccc5F)CC4)ncnc23)cc1,-9.8%,-5.2%
c1ccc(CN2CCN(c3nc(-c4ccccn4)nc4ccccc34)CC2)cc1,-5.5%,-8.3%
COc1ccc(CNC(=O)c2ccc3c(c2)CCN3S(=O)(=O)c2ccc(Cl)cc2)cc1,-17.2%,-14.3%
CCCCN(C)c1nc(-c2ccco2)c2c(c1C#N)CC(C)(C)OC2,5.5%,-0.4%
COc1cccc(OCc2nc3ccccc3n2Cc2ccccc2)c1,-8.8%,-6.3%
O=C(O)CCC(=O)Nc1ccc(NC(=O)c2ccc(Cl)cc2Cl)c(Cl)c1,-8.2%,-14.0%
COc1ccc(NC2=C(NC(C)=O)C(=O)c3ccccc3C2=O)cc1,-10.0%,-14.8%
CC(=O)c1ccc(N2CCN(C(=O)COc3ccc(F)cc3)CC2)c(F)c1,.,-18.6%
Cn1cccc1/C=C1/C(=O)NC(=O)N(Cc2ccccc2)C1=O,i,-8.6%
Cn1c(SCc2ccc(Br)cc2)nc2c(c1=O)SCC2,-12.3%,-6.7%
N#Cc1ccccc1NC(=O)COC(=O)CSc1nc2ccccc2o1,.,-6.1%
Cc1ccc(S(=O)(=O)/N=C2/C=C(C3C(=O)CC(C)(C)CC3=O)C(=O)c3ccccc32)cc1,?,?
COc1cccc(N(C(=O)c2snc(C(N)=O)c2N)C(C(=O)NCC2CCCO2)c2ccc3ncccc3c2)c1 (stereo not given),i,-22.8%
O=C(CNC(=O)c1ccccc1F)Nc1ccc2c(c1)CCC2,-16.5%,-11.5%
CCCCNc1c(-c2ccccn2)nc2nc(C)cc(C)n12,1.3%,27.8%

# Some of the entries so far, with values under each structure.
# Each structure is followed by: VACV mCherry inh	VACV Venus inh
> COc1ccc(NC2=C(NC(C)=O)C(=O)c3ccccc3C2=O)cc1
→ -10.0%	-14.8%
> Cc1ccc(C)c(NC(=O)CSc2ncnc3nc[nH]c23)c1
→ -14.4%	-12.2%
> Cc1ccc2nc(C)n(-c3ccc(F)cc3)c(=O)c2c1
→ -8.3%	-3.2%
> CCC1(C(=O)OC)NC(c2ccco2)C2C(=O)N(c3ccc(F)cc3)C(=O)C21 (stereo not given)
→ -0.8%	-14.0%

# More results.
SMILES,VACV mCherry inh,VACV Venus inh
COC(=O)c1ccc(NC(=O)CCc2c(C)nn(-c3ccc(N4CCCC4)nn3)c2C)cc1,4.8%,-1.3%
CC1(c2ccccc2)NC(=O)N(CC(=O)Nc2cc(C(F)(F)F)ccc2N2CCCCC2)C1=O (stereo not given),-16.9%,?
COc1ccc(NC(=O)c2ccco2)c([N+](=O)[O-])c1,-14.7%,-14.8%
Cc1cc(NCc2ccco2)nc(N2CCC(C(=O)NC3CCCCC3)CC2)n1,-24.4%,-14.5%
CC(C)(C)NC(=O)Cn1c(=O)oc2cc(S(=O)(=O)N3CCc4ccccc43)ccc21,-0.5%,-14.3%
Cc1ccc(OCCCCN2CCCC(C)C2)c([N+](=O)[O-])c1 (stereo not given),-15.6%,-14.5%
COC(=O)c1cc(Br)c(N)cc1OC,-3.9%,-11.8%
Cn1c(-c2ccc(F)cc2)cnc1SCC(=O)N1CCCCC1,-21.6%,-13.2%
COCCNC(=O)Cn1cc2c(n1)CCC(C)C2 (stereo not given),-10.7%,-0.7%
CC(=O)Nc1ccc(OC(=O)c2ccccc2N)cc1,-12.8%,-16.8%
CSC1=NCCN1C(=O)c1c(-c2ccccc2Cl)noc1C,15.3%,2.6%
O=C(CSc1nnc(-c2ccncc2)n1Cc1ccco1)c1ccc(Cl)cc1,-14.9%[1.46 µM],-2.0%
CCN1CCN(c2nc(N)c([N+](=O)[O-])c(Nc3ccc(C)c(C)c3)n2)CC1,-8.3%,2.6%
COP(=O)(OC)c1nc(-c2ccccc2)oc1NCc1ccccc1,-19.6%,-11.8%
COc1ccc(Br)cc1CNC(=O)C1CCN(S(=O)(=O)N2CCCCC2)CC1,-2.3%,-27.9%
Cc1cc(NC(=O)C(C)SCC(=O)Nc2cc(Cl)ccc2N2CCN(C)CC2)no1 (stereo not given),i,-6.9%
CNS(=O)(=O)c1cccc(C(=O)OCC(=O)c2c(N)n(C)c(=O)n(C)c2=O)c1,10.6%,-2.6%
CC(=O)Nc1ccc(NC(=O)c2ccc3sc([C@H]4C[C@H](O)[C@@H](CO)O4)nc3c2)cc1,i,-0.2%
COc1ccc(S(=O)(=O)Cc2ccc(C(=O)NCCc3ccc(S(N)(=O)=O)cc3)o2)cc1,-4.1%,-4.1%
Cc1cc(OCC(=O)N2CCOCC2)ccc1NC(=O)c1ccccc1C,i,-4.1%
NC(=O)NC(=O)CC1S/C(=N/N=C2/NC(=O)CS2)NC1=O (stereo not given),-4.8%,-2.2%
CCOC(=O)CSC1=N/C(=C\c2cccnc2)C(=O)N1c1ccc(OC)cc1,-13.8%,-0.2%
O=C(NCC1CCCO1)c1ccc(COc2ccccc2Br)cc1 (stereo not given),-9.0%,-15.9%
COc1ccc(/C=N/Nc2cc(C)nc(NS(=O)(=O)c3ccc(C)cc3)n2)cc1,-22.6%,?
CC(C)(C)NC(=O)NC(=O)CSc1nnc2ccccn12,-9.3%[1.46 µM],?
CC(Sc1cnccn1)C(=O)O (stereo not given),-14.7%,-5.7%
Cc1ccc(CC(=O)N(Cc2nc(-c3ccc(C)cc3)no2)C(C)C)cc1,-8.3%,2.5%
O=C(Cc1ccccc1F)NCC1(N2CCOCC2)CCCCC1,i,1.7%
Cc1cc2ncn(C(=O)N3CCC(C)CC3)c2cc1C,.,-22.6%
Cc1cccc(NC(=S)N(Cc2cccs2)Cc2cc3cc(C)cc(C)c3[nH]c2=O)c1,-1.2%,-17.4%
COc1cc(C2Nc3ccc4ccccc4c3C3=C2C(=O)CC(C)(C)C3)ccc1OC(C)C(=O)O (stereo not given),-19.7%,-13.0%
CC1=CC(C)(C)N2C(=O)C3(NCCc4c3[nH]c3ccccc43)c3cc(C)cc1c32 (stereo not given),?,-4.2%
Fc1ccc(CNc2ncnc3onc(-c4ccc(F)cc4)c23)cc1,-14.1%,-9.0%
Cc1cc(OCC(=O)N(C)c2ccccc2)cc2c1C(=O)CC(C)(C)O2,i,1.0%
CC(=O)c1cccc(NC(=O)/C=C/c2ccc([N+](=O)[O-])s2)c1,-5.6%,2.3%
CCN(Cc1ccccc1)C(=O)Cn1cc(S(=O)(=O)Cc2cccc(Cl)c2)c2ccccc21,-13.5%,-7.9%
CC(=O)c1sc(NC(=O)CN2C(=O)C3CC=CCC3C2=O)nc1-c1ccccc1 (stereo not given),-6.8%,0.5%
Cc1ccc(S(=O)(=O)CCC(=O)OCC(=O)c2c(N)n(CC(C)C)c(=O)n(C)c2=O)cc1,-19.0%,-21.3%
CCn1c(CNC(=O)c2ccccc2F)nnc1SCCOc1ccccc1,-1.8%,-15.3%
COCCCNC(=O)CN1CCN(Cc2ccccc2Cl)C1=O,i,-7.4%
CSc1nn(Cc2cccc(F)c2)c(N(C(C)=O)C(C)=O)c1S(=O)(=O)c1ccccc1,?,-23.4%
C[C@@H]1CN([C@H](C)CO)S(=O)(=O)c2ccc(Br)cc2O[C@@H]1CN(C)C(=O)Nc1ccc(C(F)(F)F)cc1,?,?
